Bioassay records: PubChem BioAssay, Broad Institute
DUX4 txn inh: DUX4-mediated transcription inhibition. 37,000 compounds, 0.8% hits. activity change, negative = inhibition, % (test concentration not listed). 293T-iDUX4 ZSCAN4-Gaussia luciferase reporter, 24 h; hits give low values;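 active means -10% or lower and over 25 points stronger than a control reporter; inconclusive means -10% or lower with a smaller gap; inactive means above -10%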;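 further: 0% = median of neutral control wells and -100% = median of positive control wells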
DUX4 txn inh difference: recorded beside DUX4 txn inh, whose call it bears; Gaussia minus Italica difference, %; measured here: selective DUX4 reporter inhibition;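 worked out from the two reporters; negative = selective loss of the DUX4 reporter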
DUX4 txn inh control: further read-out of DUX4 txn inh, marked with its call; activity change, negative = inhibition, %; measured here: Italica tet-on control reporter;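 0 = neutral control and -100 = positive control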
An asterisk follows results filed as active; ? = inconclusive; . = no result given. Not all compounds are listed; the hit share may differ from the screen's.

DUX4 txn inh | DUX4 txn inh difference | DUX4 txn inh control | smiles
? | . | . | O=S(=O)(c1cccs1)N1CCCCN2[C@H](CO)[C@H](c3ccc(-c4ccccc4)cc3)[C@H]2C1
-1 | -1 | 0.0 | O=C(c1ccncc1)N1C[C@H]2[C@@H](c3ccccc31)[C@@H](CO)N2C(=O)Nc1ccc(F)cc1
7 | -7 | 14 | OC[C@@H]1Nc2ccc(C#Cc3cccc(F)c3)cc2[C@H]2NCC[C@@H]12
-2 | -6 | 3.8 | C[C@@H]1CN([C@H](C)CO)C(=O)c2cc(NC(=O)Cn3cnnn3)ccc2O[C@H]1CN(C)Cc1ccc(C(=O)Nc2ccccc2N)cc1
10 | 10 | -0.4 | CCNC(=O)C[C@H]1CC[C@@H]2[C@H](COC[C@@H](O)CN2C(=O)Nc2cccc(OC)c2)O1
5 | 5 | -0.2 | CCCNC(=O)Nc1ccc2c(c1)C(=O)N(C)C[C@H](OC)[C@H](C)CN(C(=O)C1CCCCC1)[C@H](C)CO2
0 | -1 | 0.4 | C[C@@H]1CCCCO[C@@H](CN(C)C(=O)Cc2ccccc2)[C@@H](C)CN([C@H](C)CO)C(=O)c2cc(NS(C)(=O)=O)ccc2O1
-3 | -1 | -2.0 | N#C[C@@H]1N[C@@H](CO)[C@@H]1c1ccc(C#CC2CCCC2)cc1
? | . | . | C[C@H](CO)N1C[C@H](C)[C@@H](CN(C)Cc2ccc(O)cc2)OCc2ccccc2-c2c(n(C)c3ccccc23)C1=O
0 | 1 | -0.9 | CNC[C@H]1Oc2c(NC(=O)Nc3c(C)noc3C)cccc2C(=O)N([C@H](C)CO)C[C@H]1C
-1 | 1 | -1.9 | COCCNC(=O)C[C@H]1CC[C@H]2[C@H](COc3ccc(NC(=O)Cc4ccccc4)cc3C(=O)N2C)O1
8 | 6 | 1.9 | O=C(C[C@H]1CC[C@@H]2[C@H](COC[C@H](O)CN2Cc2ccncc2)O1)NCC1CC1

3 entries already listed, ordered by the value under DUX4 txn inh difference, highest first.
DUX4 txn inh | DUX4 txn inh difference | DUX4 txn inh control | smiles
-1 | 1 | -1.9 | COCCNC(=O)C[C@H]1CC[C@H]2[C@H](COc3ccc(NC(=O)Cc4ccccc4)cc3C(=O)N2C)O1
-3 | -1 | -2.0 | N#C[C@@H]1N[C@@H](CO)[C@@H]1c1ccc(C#CC2CCCC2)cc1
7 | -7 | 14 | OC[C@@H]1Nc2ccc(C#Cc3cccc(F)c3)cc2[C@H]2NCC[C@@H]12

(cont.)
DUX4 txn inh | DUX4 txn inh difference | DUX4 txn inh control | smiles
-1 | -4 | 2.3 | CC(=O)N1CC2(C1)[C@H](c1ccccc1)[C@@H](CO)N2Cc1ccccc1F
-1 | -9 | 8.4 | C[C@@H]1CN([C@@H](C)CO)C(=O)c2ccccc2-c2ccccc2CO[C@H]1CN(C)C(=O)c1cc(Cl)cc(Cl)c1
20 | -3 | 22 | COc1ccc2c3c(n(C)c2c1)[C@H](CO)N(Cc1cccc(Cl)c1)CC31CCN(C(=O)C2CC2)CC1
1 | -1 | 1.6 | Cc1noc(C)c1NC(=O)N(C)C[C@@H]1OCCCC[C@H](C)Oc2ccc(NC(=O)c3ccncc3)cc2C(=O)N([C@@H](C)CO)C[C@@H]1C
1 | 0 | 1.9 | C[C@@H]1CN([C@H](C)CO)C(=O)CCCn2nncc2CO[C@H]1CN(C)C(=O)Nc1ccnc(N2CCOCC2)c1
4 | 3 | 0.8 | C[C@@H]1CN([C@@H](C)CO)C(=O)CCCn2nncc2CO[C@H]1CN(C)Cc1cccc(O)c1
10 | 3 | 6.2 | COC(=O)C[C@H]1CC[C@H]2[C@@H](COC[C@@H](O)CN2S(=O)(=O)c2cn(C)cn2)O1
-1 | -2 | 0.8 | CNC[C@@H]1OCCCC[C@@H](C)Oc2ccc(NC(=O)Nc3cccc4ccccc34)cc2C(=O)N([C@H](C)CO)C[C@@H]1C
-1 | -5 | 3.3 | CO[C@H]1CN(C)C(=O)c2cc(NC(=O)Nc3c(C)noc3C)ccc2OC[C@@H](C)NC[C@@H]1C
22 | 4 | 18 | CN1CCN(C(=O)C[C@@H]2CC[C@@H]3[C@H](COC[C@H](O)CN3Cc3ccc4c(c3)OCO4)O2)CC1
4 | 1 | 2.5 | O=C(NCC[C@@H]1CC[C@H](NC(=O)c2cnccn2)[C@@H](CO)O1)c1ccc2c(c1)OCO2
0 | 0 | 0.1 | Cc1noc(C)c1NC(=O)Nc1ccc2c(c1)CC(=O)N([C@@H](C)CO)C[C@H](C)[C@@H](CN(C)S(=O)(=O)c1cccs1)O2
-7 | 0 | -6.8 | O=C(Nc1ccc(C(F)(F)F)cc1)N[C@H]1C=C[C@H](CC(=O)N2CCCCC2)O[C@@H]1CO
15 | 3 | 12 | COCC(=O)N1CC(=O)N2[C@@H](CO)[C@H](c3ccc(C#Cc4cccnc4)cc3)[C@@H]2C1
-4 | 6 | -9.7 | C/C=C/c1ccc([C@H]2[C@@H](CO)N(CC3CCCC3)C23CN(S(=O)(=O)CC)C3)cc1
0 | 1 | -0.3 | CCCNC(=O)C[C@@H]1CC[C@@H]2[C@H](COc3ccc(NC(=O)Nc4c(C)noc4C)cc3C(=O)N2C)O1
-1 | -3 | 2.1 | CN1c2ccc(-c3cccc(F)c3)cc2[C@H]2[C@H](CCN2C(=O)c2ccncc2)[C@@H]1CO
? | . | . | CCCN1C[C@@H](C)[C@H](OC)CN(C)C(=O)c2cc(NC(=O)Nc3cccc(F)c3)ccc2OC[C@@H]1C
? | . | . | O=C(C[C@@H]1CC[C@@H]2[C@H](COC[C@H](O)CN2C(=O)c2ccccc2)O1)NCc1ccc(-c2ccccc2)cc1
1 | -1 | 2.2 | C[C@@H]1CN([C@H](C)CO)C(=O)c2cc(NC(=O)Nc3ccc4c(c3)OCO4)ccc2O[C@@H](C)CCCCO[C@@H]1CN(C)Cc1ccc(Cl)c(Cl)c1
-2 | -2 | -0.7 | C/C=C/c1ccc([C@@H]2[C@H](CO)N(CC3CCOCC3)C23CN(S(=O)(=O)CC)C3)cc1
-1 | 5 | -6.4 | O=C(C[C@@H]1CC[C@@H](NS(=O)(=O)c2ccccc2)[C@@H](CO)O1)NCc1ccc(Cl)c(Cl)c1
0 | 5 | -4.9 | O=C(c1cnccn1)N1CC(=O)N2[C@@H](CO)[C@H](c3ccc(C#CC4CC4)cc3)[C@@H]2C1
-1 | -3 | 2.6 | CO[C@@H]1CN(C)C(=O)c2cc(NC(C)=O)ccc2OC[C@H](C)N(Cc2ccncc2)C[C@@H]1C
7 | 9 | -1.2 | COc1ccccc1CNC(=O)C[C@@H]1CC[C@@H]2[C@H](COC[C@H](O)CN2C(=O)Nc2ccc(F)cc2)O1
-2 | 1 | -2.6 | C/C=C/c1cnc2c(c1)C(=O)N([C@H](C)CO)C[C@H](C)[C@H](CN(C)S(=O)(=O)c1ccc(OC)cc1)O2
4 | 3 | 1.3 | COc1ccc(NC(=O)N2C[C@H]3[C@@H](c4ccccc42)[C@@H](CO)N3Cc2ccccn2)cc1
9 | 3 | 6.5 | CO[C@H]1CC[C@@H]2CCN(C)C(=O)[C@@H](C)N(C)C(=O)c3cccc(C#N)c3OC[C@@H]1O2
-2 | -5 | 3.9 | CCC(=O)NC[C@H]1[C@H](c2ccc(-c3ccccc3)cc2)[C@@H](CO)N1C(=O)C1CC1
-5 | 0 | -4.7 | COc1ccc(-c2cn(CC[C@@H]3CC[C@H](NC(=O)c4cnccn4)[C@@H](CO)O3)nn2)cc1
9 | -6 | 16 | COC(=O)C[C@H]1C[C@H]2c3cc(NC(=O)CN(C)C)ccc3O[C@H]2[C@@H](CO)O1
-1 | 1 | -1.7 | O=C([C@H]1[C@H](CO)[C@H]2Cn3c(ccc(-c4ccccc4)c3=O)[C@@H]1N2CCC(F)(F)F)N1CCOCC1
? | . | . | CC(C)CC#Cc1ccc([C@@H]2[C@H](CO)N3C(=O)CN(C(=O)c4ccc5c(c4)OCO5)C[C@@H]23)cc1
-49* | -29* | -20* | C[C@@H]1CN([C@H](C)CO)C(=O)c2c(c3ccccc3n2C)-c2ccccc2CO[C@H]1CN(C)Cc1ccccc1C(F)(F)F
-45* | -25* | -20* | O=C(C[C@H]1CC[C@@H](NC(=O)c2ccc3c(c2)OCO3)[C@@H](CO)O1)NCc1ccc(Oc2ccccc2)cc1
-2 | -1 | -1.0 | C[C@H]1CCCCO[C@@H](CN(C)C(=O)Nc2ccc3c(c2)OCO3)[C@@H](C)CN([C@@H](C)CO)C(=O)c2cc(NS(=O)(=O)c3ccc(F)cc3)ccc2O1

Structures above that contain a CF3 group, in the order listed:
DUX4 txn inh | DUX4 txn inh difference | DUX4 txn inh control | smiles
-7 | 0 | -6.8 | O=C(Nc1ccc(C(F)(F)F)cc1)N[C@H]1C=C[C@H](CC(=O)N2CCCCC2)O[C@@H]1CO
-1 | 1 | -1.7 | O=C([C@H]1[C@H](CO)[C@H]2Cn3c(ccc(-c4ccccc4)c3=O)[C@@H]1N2CCC(F)(F)F)N1CCOCC1
-49* | -29* | -20* | C[C@@H]1CN([C@H](C)CO)C(=O)c2c(c3ccccc3n2C)-c2ccccc2CO[C@H]1CN(C)Cc1ccccc1C(F)(F)F

Other results follow.
DUX4 txn inh | DUX4 txn inh difference | DUX4 txn inh control | smiles
1 | -2 | 3.3 | C[C@@H]1CN([C@H](C)CO)C(=O)c2cc(-c3cccc(F)c3)cnc2O[C@@H]1CN(C)C(=O)c1cnccn1
-5 | -7 | 2.6 | CCCNC(=O)Nc1ccc2c(c1)C(=O)N(C)[C@H]1CC[C@H](CC(=O)NCc3ccccc3)O[C@H]1CO2
12 | 9 | 3.1 | O=C(c1ccccc1F)N1CC2(C1)[C@@H](c1ccccc1)[C@@H](CO)N2CC1CCOCC1
-2 | -2 | -0.1 | O=C(C[C@@H]1C[C@H]2c3cc(NC(=O)C4CCC4)ccc3O[C@H]2[C@@H](CO)O1)NCc1cccc(F)c1
14 | 9 | 4.3 | CCS(=O)(=O)N1CC2(CN(C(=O)Cc3ccccn3)[C@@H](CO)c3[nH]c4cc(OC)ccc4c32)C1
6 | -3 | 8.4 | Cc1ccc(S(=O)(=O)Nc2ccc3c(c2)C(=O)N(C)[C@H]2CC[C@@H](CC(=O)NCCc4ccncc4)O[C@H]2CO3)cc1
-1 | 1 | -2.0 | COCC(=O)NC[C@@H]1[C@@H](c2ccc(C3=CCCC3)cc2)[C@H](CO)N1C(=O)C1CC1
-1 | -7 | 5.4 | CCCNC(=O)N1[C@@H]2CN(C(=O)C3CCC3)c3ccccc3[C@@H]2[C@@H]1CO
1 | 1 | 0.4 | C[C@H](CO)N1C[C@H](C)[C@@H](CN(C)C(=O)c2ccncc2)OCc2ccccc2-c2c(n(C)c3ccccc23)C1=O
-2 | -5 | 3.5 | COCC(=O)N1[C@@H](CO)[C@@H](c2ccccc2)C12CN(Cc1ccccc1)C2
-4 | -4 | 0.6 | Cc1noc(C)c1NC(=O)N(C)C[C@H]1OCCCC[C@@H](C)Oc2ccc(NC(=O)c3ccncc3)cc2C(=O)N([C@H](C)CO)C[C@@H]1C
1 | -4 | 5.3 | O=C(Nc1ccccc1)[C@H]1[C@H](CO)[C@H]2Cn3c(cccc3=O)[C@@H]1N2C(=O)c1ccc(F)cc1

In the list so far, these contain a cyano group.
DUX4 txn inh | DUX4 txn inh difference | DUX4 txn inh control | smiles
-3 | -1 | -2.0 | N#C[C@@H]1N[C@@H](CO)[C@@H]1c1ccc(C#CC2CCCC2)cc1
9 | 3 | 6.5 | CO[C@H]1CC[C@@H]2CCN(C)C(=O)[C@@H](C)N(C)C(=O)c3cccc(C#N)c3OC[C@@H]1O2

More records follow.
DUX4 txn inh | DUX4 txn inh difference | DUX4 txn inh control | smiles
4 | 4 | -0.1 | C[C@@H]1CN([C@H](C)CO)C(=O)CCCn2cc(nn2)CO[C@H]1CN(C)S(=O)(=O)c1cccc(C#N)c1
0 | -2 | 2.5 | C[C@H]1CN([C@@H](C)CO)S(=O)(=O)c2ccc(-c3cccc(C(=O)N(C)C)c3)cc2O[C@H]1CN(C)Cc1ccc2c(c1)OCO2
-2 | -4 | 2.2 | CN(C)CCCNC(=O)C[C@@H]1CC[C@H]2[C@@H](COc3ccc(NC(=O)c4ccc5c(c4)OCO5)cc3C(=O)N2C)O1
11 | 6 | 4.6 | Cn1cnc(S(=O)(=O)N2C[C@@H](O)COC[C@@H]3O[C@H](CC(=O)NCc4cc(F)cc(F)c4)CC[C@H]32)c1
6 | 4 | 2.5 | CO[C@@H]1CN(C)C(=O)c2ccc(NC(C)=O)cc2OC[C@@H](C)N(C(=O)Cc2cccnc2)C[C@H]1C
-6 | -6 | 0.1 | C/C=C/c1ccc([C@@H]2[C@@H](CO)N(C(=O)NCCC)[C@@H]2CNC(=O)C2CC2)cc1
25 | 17 | 8.2 | O=C(c1ccccn1)N1CC[C@@H]2[C@H]1c1cc(-c3ccccc3)ccc1N[C@@H]2CO
-2 | -5 | 3.0 | COc1ccc(S(=O)(=O)Nc2ccc3c(c2)C(=O)N([C@H](C)CO)C[C@H](C)[C@@H](CN(C)CC2CC2)OCCCC[C@@H](C)O3)cc1
2 | 0 | 1.7 | Cc1noc(C)c1S(=O)(=O)N(C)C[C@H]1OCCCC[C@H](C)Oc2ccc(NC(=O)c3ccccc3)cc2C(=O)N([C@H](C)CO)C[C@H]1C
0 | 1 | -0.6 | COc1ccc(S(=O)(=O)Nc2ccc3c(c2)C(=O)N([C@@H](C)CO)C[C@H](C)[C@H](CN(C)Cc2ccc(C(F)(F)F)cc2)OCCCC[C@H](C)O3)cc1
-2 | -3 | 1.7 | CN(C[C@H]1N[C@@H](CO)[C@H]1c1ccc(-c2ccccc2)cc1)C(=O)C1CCC1
-1 | -3 | 2.0 | CCC(=O)N1CC2(C1)[C@@H](c1ccccc1)[C@@H](CO)N2Cc1ccccc1OC
2 | -4 | 5.8 | CO[C@@H]1CN(C)C(=O)c2ccc(NS(C)(=O)=O)cc2OC[C@H](C)N(CC2CC2)C[C@@H]1C
